Vaccinia stage – blocks a specific stage of Vaccinia orthopoxvirus infection | Vaccinia-infected cells, mCherry/Venus stage reporter fluorescence; stronger effect = lower value; some inactives read as strong as hits | activity change (mCherry), % (no concentration beside the values) | hit rate 0.01% among 89,000;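 active means mCherry past -33% and 40 or more points under the early reporter, replicates agreeing; inconclusive means past -33% without that gap or agreement; tested in A549 cells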;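 further: scaled between vehicle wells and reference inhibitor wells; 23 nL library stock went into each well; one replicate is shown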
Vaccinia stage Venus – recorded beside Vaccinia stage, whose call it bears; activity change (Venus), %; measured here: Venus reporter, other viral stage;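 negative = less Venus signal; first of two replicates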
An asterisk follows results filed as active; ? = inconclusive; . = no result given. These rows are one share of the data; count on the stated rates, not on these rows.

A first look:
SMILES | Vaccinia stage | Vaccinia stage Venus
C[C@@H]1CN([C@@H](C)CO)C(=O)Cc2cc(NS(=O)(=O)c3ccc(Cl)cc3)ccc2O[C@H]1CN(C)Cc1ccc2c(c1)OCO2 | ? | .
CC=Cc1ccc2n(c1=O)C[C@H]1[C@H](CO)[C@@H](C(=O)NCc3ccncc3)N(C(=O)NC3CCCC3)[C@@H]21 (mixture of isomers) | 3.6 | 10.8

The list itself, repeating the preview:
SMILES | Vaccinia stage | Vaccinia stage Venus
C[C@@H]1CN([C@@H](C)CO)C(=O)Cc2cc(NS(=O)(=O)c3ccc(Cl)cc3)ccc2O[C@H]1CN(C)Cc1ccc2c(c1)OCO2 | ? | .
CC=Cc1ccc2n(c1=O)C[C@H]1[C@H](CO)[C@@H](C(=O)NCc3ccncc3)N(C(=O)NC3CCCC3)[C@@H]21 (mixture of isomers) | 3.6 | 10.8
C[C@H](CO)N1C[C@H](C)[C@H](CN(C)C(=O)Nc2ccccc2F)Oc2cc(-c3cccc(C#N)c3)ccc2S1(=O)=O | -34.7 | -29.3
C[C@H](CO)N1C[C@H](C)[C@H](CN(C)S(=O)(=O)c2cccs2)OCc2ccccc2-c2c(n(C)c3ccccc23)C1=O | -28.0 | -21.3
CO[C@H]1CN(C)C(=O)c2cc(NC(=O)Nc3ccccc3)ccc2OC[C@@H](C)N(C(C)=O)C[C@@H]1C | 4.0 | 10.8
CC(C)NC(=O)N[C@H]1CC[C@H](CC(=O)NCc2ccc(Oc3ccccc3)cc2)O[C@H]1CO | -10.5 | -5.6
O=C(Cc1ccccc1)N1CC[C@H]2[C@H](CO)Nc3ccc(Br)cc3[C@H]21 | 6.1 | -2.8
COCCOC(=O)N1C(=O)[C@@]2(c3ccccc31)[C@H](c1ccccc1OCCO)N1[C@H](c3ccccc3)[C@H](c3ccccc3)OC(=O)[C@H]1[C@@H]2C(=O)N1CCCCCCC1 | -15.4 | -8.9
C[C@@H]1CN([C@@H](C)CO)C(=O)c2cccc(NS(C)(=O)=O)c2O[C@H]1CN(C)S(=O)(=O)c1ccccc1 | -1.0 | 1.5
C[C@H]1CN([C@@H](C)CO)C(=O)Cc2cc(NS(=O)(=O)c3cn(C)cn3)ccc2O[C@@H]1CN(C)S(=O)(=O)c1cn(C)cn1 | 19.1 | 14.3
CN1C(=O)c2cc(NC(=O)c3ccc(F)cc3)ccc2OC[C@H]2O[C@H](CC(=O)O)CC[C@@H]21 | -2.2 | -1.2
C[C@@H]1CN([C@@H](C)CO)C(=O)Cc2cc(NC(=O)CCCCCC(=O)Nc3ccccc3N)ccc2O[C@@H]1CN(C)Cc1ccc(Oc2ccccc2)cc1 | ? | .
CO[C@@H](CN(C)S(=O)(=O)c1ccccc1)[C@H](C)CN(Cc1ccccc1Cl)[C@@H](C)CO | 2.1 | 9.9
C/C=C/c1ccc([C@H]2[C@@H](CO)N(Cc3cccnc3)C23CN(C(=O)CC)C3)cc1 | -1.1 | 0.7
CCC(=O)N1[C@H](C#N)[C@@H](c2ccccc2-c2ccccc2)[C@H]1CO | 5.1 | 6.4
C[C@H](CO)N1C[C@H](C)[C@H](CN(C)S(=O)(=O)c2ccccc2)Oc2c(NS(C)(=O)=O)cccc2C1=O | 17.4 | 16.4
COc1ccc2c3c(n(C)c2c1)[C@@H](CO)N(Cc1ccc(Cl)cc1)CC31CN(CC2CC2)C1 | -22.1 | -23.0
CC(C)NC(=O)Nc1ccc2c(c1)CC(=O)N([C@@H](C)CO)C[C@H](C)[C@@H](CN(C)Cc1ccc(Cl)c(Cl)c1)O2 | 3.1 | -1.0
CCNC(=O)Nc1ccc2c(c1)C(=O)N(C)[C@H]1CC[C@@H](CC(=O)N[C@H](C)c3ccccc3)O[C@H]1CO2 | -8.7 | -2.5
Cc1noc(C)c1NC(=O)Nc1ccc2c(c1)C(=O)N([C@H](C)CO)C[C@H](C)[C@@H](CN(C)S(=O)(=O)c1cn(C)cn1)OCCCC[C@H](C)O2 | 14.4 | 12.4
C[C@H]1CN([C@@H](C)CO)C(=O)c2cccc(NC(=O)C3CCOCC3)c2O[C@H]1CN(C)S(=O)(=O)c1ccccc1 | 21.0 | 5.1
C[C@H]1CN([C@@H](C)CO)C(=O)c2cc(NC(=O)Cc3cn(C)c4ccccc34)ccc2O[C@@H]1CN(C)Cc1ccncc1 | 25.5 | 4.0
O=C(NCC[C@H]1CC[C@@H](NC(=O)c2cnccn2)[C@H](CO)O1)Nc1ccc(Cl)cc1 | 4.5 | 11.4
CC(C)NC(=O)N(C)C[C@H]1Oc2cc(C#CC3CC3)ccc2S(=O)(=O)N([C@H](C)CO)C[C@@H]1C | 13.8 | -1.9
COc1ccccc1C#Cc1ccc([C@@H]2[C@H]3CN(C(=O)C4CC4)CCCCN3[C@H]2CO)cc1 | ? | .
Going on with the list:
SMILES | Vaccinia stage | Vaccinia stage Venus
COc1ccc(CN(C)C[C@H]2Oc3ccc(NS(=O)(=O)c4ccc(C)cc4)cc3CC(=O)N([C@H](C)CO)C[C@@H]2C)cc1 | ? | .
O=C(Cc1cccnc1)N[C@H]1CC[C@@H](CCn2cc(Cc3ccccc3)nn2)O[C@@H]1CO | 17.3 | 20.0
COCC(=O)Nc1ccc2c(c1)OC[C@H](C)N(C(=O)c1ccncc1)C[C@@H](C)[C@H](OC)CN(C)C2=O | 12.2 | 14.5
C[C@H](CO)N1C[C@H](C)[C@H](CN(C)Cc2ccncc2)Oc2ccc(NC(=O)C3CCCCC3)cc2C1=O | 24.6 | 22.3
COCC(=O)N(C)C[C@H]1Oc2cc(-c3ccc(C#N)cc3)ccc2S(=O)(=O)N([C@@H](C)CO)C[C@H]1C | 4.8 | 10.5
CCN1[C@@H]2Cn3c(ccc(/C=C/c4ccccc4)c3=O)[C@H]1[C@@H](C(=O)NCc1ccccn1)[C@@H]2CO | -5.8 | -6.8
C[C@@H]1CCCCO[C@@H](CN(C)C(=O)c2ccccc2)[C@@H](C)CN([C@H](C)CO)C(=O)c2cc(NC(=O)Nc3ccc(C(F)(F)F)cc3)ccc2O1 | 17.5 | 3.3
C[C@H]1CN([C@@H](C)CO)C(=O)c2cc(C#Cc3ccccc3)cnc2O[C@@H]1CN(C)C(=O)c1ccccn1 | 11.8 | 9.3
O=S(=O)(N[C@@H]1CC[C@H](CCn2cc(Cc3ccccc3)nn2)O[C@H]1CO)c1ccccc1F | 15.4 | 13.6
Cc1cccc(S(=O)(=O)N2CCCCN3[C@H](CO)[C@H](c4ccc(-c5ccncc5)cc4)[C@@H]3C2)c1 | -22.1 | -24.3
Cc1ccccc1-c1ccc([C@@H]2[C@@H](CO)N3CCCCN(C(=O)Nc4cccc(F)c4)C[C@@H]23)cc1 | ? | .
COc1cccc(-c2cnc3c(c2)C(=O)N([C@H](C)CO)C[C@@H](C)[C@@H](CN(C)Cc2ccncc2)O3)c1 | 18.7 | 1.3
O=C(C[C@H]1CC[C@H](NC(=O)C2CCC2)[C@H](CO)O1)NCc1ccncc1 | 24.0 | 16.2
Cc1noc(C)c1NC(=O)Nc1cccc2c1O[C@@H](CN(C)S(=O)(=O)c1ccc(Cl)cc1)[C@H](C)CN([C@H](C)CO)C2=O | 25.5 | 10.1
CN(C)C(=O)c1ccc(-c2ccc([C@@H]3[C@H](CO)N4CCCCN(C(=O)C5CCC5)C[C@@H]34)cc2)cc1 | 5.1 | -3.8
Cc1cccc(NC(=O)Nc2ccc3c(c2)C(=O)N(C)[C@H]2CC[C@H](CC(=O)NCc4ccccc4Cl)O[C@H]2CO3)c1 | -14.9 | 13.0
CN1C(=O)c2cc(NC(=O)c3ccccc3)ccc2OC[C@H]2O[C@H](CC(=O)NC3CCCC3)CC[C@H]21 | 8.1 | 3.8
C[C@H](NC(=O)C[C@@H]1C=C[C@H](NC(=O)Nc2ccc3c(c2)OCO3)[C@@H](CO)O1)c1ccccc1 | -3.5 | 2.7
C[C@@H]1CN([C@@H](C)CO)S(=O)(=O)c2ccc(-c3ccc(C#N)cc3)cc2O[C@H]1CN(C)C | -6.9 | 2.5
CCC(=O)N1[C@@H](CO)[C@@H]2c3ccccc3N(S(=O)(=O)c3ccccc3F)C[C@@H]21 | 5.3 | 10.6
C[C@H](CO)N1C[C@H](C)[C@H](CN(C)Cc2ccc(Oc3ccccc3)cc2)Oc2c(NC(=O)C3CC3)cccc2C1=O | 3.9 | 9.5
O=C(Nc1ccc(Cl)cc1)N[C@@H]1CC[C@@H](CCNC(=O)c2ccccc2F)O[C@@H]1CO | 9.1 | 12.4
Cc1noc(C)c1S(=O)(=O)Nc1ccc2c(c1)C(=O)N([C@@H](C)CO)C[C@@H](C)[C@@H](CN(C)S(C)(=O)=O)OCCCC[C@@H](C)O2 | 9.5 | 7.3
C[C@@H]1CCCCO[C@H](CN(C)Cc2ccncc2)[C@H](C)CN([C@H](C)CO)C(=O)c2cc(NC(=O)CCC(F)(F)F)ccc2O1 | -8.0 | -8.7
C[C@H](CO)N1C[C@H](C)[C@@H](CN(C)Cc2ccc(C(=O)O)cc2)Oc2ccc(NC(=O)Nc3ccc(F)cc3)cc2C1=O | 26.7 | 20.2
Other results follow.
SMILES | Vaccinia stage | Vaccinia stage Venus
CC(C)CC#Cc1ccc2c(c1)O[C@@H](CN(C)C)[C@H](C)CN([C@H](C)CO)S2(=O)=O | ? | .
O=C(C[C@H]1C[C@H]2c3cc(NC(=O)Nc4ccc(C(F)(F)F)cc4)ccc3O[C@H]2[C@H](CO)O1)NCc1ccc(Cl)cc1 | -2.8 | -4.9
COc1ccccc1NC(=O)Nc1ccc2c(c1)C(=O)N(C)C[C@@H](OC)[C@H](C)CN[C@@H](C)CO2 | -15.4 | -2.1
N#C[C@H]1[C@H](c2ccc(-c3cccnc3)cc2)[C@@H](CO)N1C(=O)C1CC1 | 13.2 | 4.2
COc1ccc2c3c(n(C)c2c1)[C@@H](CO)N(Cc1ccccc1F)CC31CCN(C(=O)C2CC2)CC1 | 3.1 | -0.4
C/C=C/c1ccccc1[C@H]1[C@H](C#N)N(C(C)=O)[C@H]1CO | 5.9 | 9.8
CCS(=O)(=O)NCC[C@H]1CC[C@H](NC(=O)C2CCOCC2)[C@H](CO)O1 | 15.9 | 13.9
CN(C)C(=O)[C@@H]1[C@@H](CO)[C@@H]2Cn3c(ccc(-c4cccnc4)c3=O)[C@H]1N2C(=O)NC1CCCC1 | 3.4 | -3.2
COc1ccc(S(=O)(=O)Nc2cccc3c2O[C@@H](CN(C)Cc2ccc(C(F)(F)F)cc2)[C@H](C)CN([C@H](C)CO)C3=O)cc1 | -11.8 | -10.9
C[C@H]1CN([C@@H](C)CO)C(=O)c2cc(C#CCc3ccccc3)cnc2O[C@@H]1CN(C)CC1CCCC1 | ? | .
Cc1ccc(S(=O)(=O)Nc2cccc3c2O[C@H](CN(C)Cc2ccc(C(=O)Nc4ccccc4N)cc2)[C@H](C)CN([C@H](C)CO)C3=O)cc1 | -24.6 | -26.4
C[C@@H]1CN([C@@H](C)CO)C(=O)Cc2cc(NC(=O)CCN3CCOCC3)ccc2O[C@H]1CN(C)Cc1ccncc1 | 1.8 | -10.8
C[C@@H]1CCCCO[C@H](CN(C)C)[C@@H](C)CN([C@H](C)CO)C(=O)c2cc(NC(=O)Nc3ccc4c(c3)OCO4)ccc2O1 | 9.5 | 10.4
C[C@H](CO)N1C[C@H](C)[C@H](CN(C)Cc2ccc3c(c2)OCO3)Oc2c(NC(=O)c3cnccn3)cccc2C1=O | -2.9 | -6.7
C[C@H](CO)N1C[C@H](C)[C@@H](CN(C)C(=O)Nc2ccc(C(C)(C)C)cc2)OCc2cn(nn2)CCCC1=O | -3.3 | 4.1
COc1ccccc1S(=O)(=O)N(C)C[C@H]1OCc2ccccc2-c2ccccc2C(=O)N([C@H](C)CO)C[C@H]1C | 23.7 | -1.0
O=C1CN(S(=O)(=O)Cc2ccccc2)C[C@@H]2[C@@H](c3ccc(C#CCC4CCCC4)cc3)[C@@H](CO)N12 | ? | .
COc1ccc(CN(C)C[C@@H]2Oc3ccc(NS(C)(=O)=O)cc3C(=O)N([C@H](C)CO)C[C@@H]2C)cc1 | 12.7 | -3.4
O=C(C[C@H]1CC[C@@H]2[C@H](COC[C@@H](O)CN2C(=O)c2ccc(F)cc2)O1)Nc1ccc(-c2ccccc2)cc1 | -32.4 | -6.2
C[C@H](CO)N1C[C@H](C)[C@H](CN(C)Cc2ccccc2)Oc2c(NC(=O)C3CC3)cccc2C1=O | 27.7 | 12.4
CCCNC(=O)C[C@@H]1CC[C@@H]2[C@H](COC[C@@H](O)CN2C(=O)Nc2ccc3c(c2)OCO3)O1 | 8.5 | 4.0
C[C@@H]1CN([C@@H](C)CO)C(=O)c2cc(NC(=O)c3ccncc3)ccc2O[C@@H](C)CCCCO[C@H]1CN(C)CC1CCCCC1 | 11.0 | -3.5
CCCN1C[C@H](C)[C@H](OC)CN(C)C(=O)c2cc(NC(=O)c3cccc(F)c3)ccc2OC[C@H]1C | -19.3 | -10.6
CCCC#Cc1ccc([C@H]2[C@H]3CN(C(=O)Cc4ccccn4)CCCCN3[C@H]2CO)cc1 | 0.8 | 11.3
CC=Cc1ccc2n(c1=O)C[C@H]1[C@H](CO)[C@@H](C(=O)N3CCc4ccccc4C3)[C@@H]2N1Cc1cocn1 (mixture of isomers) | 18.0 | 8.1
C[C@@H]1CN([C@H](C)CO)C(=O)c2cc(NC(=O)c3ccccc3)ccc2O[C@@H](C)CCCCO[C@@H]1CN(C)C(=O)CCC(F)(F)F | 15.4 | 2.9

Compound profiles (already shown). Screens in order: Vaccinia stage | Vaccinia stage Venus
COc1ccc2c3c(n(C)c2c1)[C@@H](CO)N(Cc1ccccc1F)CC31CCN(C(=O)C2CC2)CC1 across the screens: 3.1 | -0.4
C[C@@H]1CN([C@@H](C)CO)C(=O)Cc2cc(NC(=O)CCN3CCOCC3)ccc2O[C@H]1CN(C)Cc1ccncc1 across the screens: 1.8 | -10.8
COc1ccc(S(=O)(=O)Nc2cccc3c2O[C@@H](CN(C)Cc2ccc(C(F)(F)F)cc2)[C@H](C)CN([C@H](C)CO)C3=O)cc1 across the screens: -11.8 | -10.9
C[C@@H]1CCCCO[C@H](CN(C)C)[C@@H](C)CN([C@H](C)CO)C(=O)c2cc(NC(=O)Nc3ccc4c(c3)OCO4)ccc2O1 across the screens: 9.5 | 10.4

Compound activity from PubChem.
